From PubChem
ERG-DNA inh: qHTS for Small Molecule Inhibitors of the ERG Ets/DNA interaction. 370,000 compounds, 0.028% hits. fluorescence polarization, His-ERG Ets domain / labelled DNA. Potency, µM (doses to about 76.9 µM), without a hit: top-dose FP activity, negative = inhibition, actives largely listed as inhibitors. AID 624246, 2012. Transcriptional regulator ERG (Homo sapiens), P11308; active means well fitted inhibition curve with a large enough effect in the polarisation, with a control signal flat; inconclusive means small, poorly fitted or top-dose-only effect, or effect the other way, or a change in a side signal; inactive means no such curve, though single readings can be large or run the other way; the % refers to the polarisation;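 further: polarization taken with two DNA probes labelled with fluorescein and Texas red; potency means the concentration at half of the fitted maximal effect; % of control where 0% means no effect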
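His-tagged ERG Ets domain (1 uM in the protein solution; 300mM KCl, 50mM Tris-HCl, 1mM EDTA, 1mM DTT, pH 7.5) received compound, then a probe mix of 5 nM fluorescein-DNA and 100nM Texas-615-DNA. Fluorescence polarization was read for both dyes.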
RGS4 inhibitor: Inhibitors of Regulator of G Protein Signaling (RGS) 4: qHTS. Potency, µM (top dose mostly 114 µM), for inactives: top-dose activity change, negative = inhibition, actives largely listed as inhibitors. Transcreener GDP fluorescence polarization, RGS4-accelerated GTP hydrolysis. Regulator of G-protein signaling 4 (Homo sapiens), P49798. AID 504845, 2011. 390,000 compounds, 0.039% hits; further: potency means the concentration at half of the fitted maximal effect; on the % scale 0 is the no-effect control and ±100 the full control effect; nearly all actives have a fitted effect of over 75% in size; some results filed as inactive show a strong effect at the top dose
Target sequence (P49798 whole entry, looked up): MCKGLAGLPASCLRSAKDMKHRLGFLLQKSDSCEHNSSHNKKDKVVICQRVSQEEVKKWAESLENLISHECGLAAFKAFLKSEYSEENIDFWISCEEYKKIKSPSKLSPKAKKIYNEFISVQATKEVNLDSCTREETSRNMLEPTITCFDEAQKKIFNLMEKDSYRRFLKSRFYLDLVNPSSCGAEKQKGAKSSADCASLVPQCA
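MLSMR compounds (23 nl, pin-transferred) preincubated 10 min at room temperature with a 500nM (2x) first reagent, then RGS4 at 900nM (2x) plus Transcreener GDP mix added; fluorescence polarization (620/688 nm) read before and after 90 min at 30 °C.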
LDHA inh: qHTS assay for inhibitors of human lactate dehydrogenase; L-lactate dehydrogenase A chain (Homo sapiens), P00338; purified LDHA, NADH/diaphorase-resazurin fluorescence; stronger effect = lower value; activity change, % (values are at about 110 or 230 µM); 480,000 compounds, 0.15% hits; AID 1347041, 2019; in the data active means activity change below about -30%; inconclusive means mostly about -25% to -30%;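 further: plate controls were DMSO wells for no effect and wells without enzyme for full effect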
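Human LDH5 at 2 nM final in Tris HCl pH 7.4 with 0.06 mM NADH and 0.2 mM pyruvate, reacted 5 minutes at room temperature. Remaining NADH coupled via diaphorase/resazurin; resorufin fluorescence read at 0 and 20 minutes, normalized to enzyme-free and DMSO wells.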
Anesthetic bind: qHTS Assay for Identification of Novel General Anesthetics; Ferritin light chain (Equus caballus), P02791; apoferritin/1-aminoanthracene competitive binding, fluorescence; Potency, µM (doses to about 77.5 µM), for inactives: at the highest dose activity change, negative = displacement, hits mostly inhibitors; 350,000 compounds, 0.074% hits; further: potency means the concentration at half of the fitted maximal effect; on the % scale 0 is the no-effect control and ±100 the full control effect; nearly all actives have a fitted effect of over 20% in size
Target sequence (P02791 2-175 limits assumed): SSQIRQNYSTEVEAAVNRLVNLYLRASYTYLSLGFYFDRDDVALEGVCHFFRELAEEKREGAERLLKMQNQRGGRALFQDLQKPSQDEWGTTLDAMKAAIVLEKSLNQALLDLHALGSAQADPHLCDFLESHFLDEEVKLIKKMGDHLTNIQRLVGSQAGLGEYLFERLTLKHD
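Concentration-response curves derived by four-parameter Hill fitting of normalized fluorescence, where compounds displaced 1-AMA from 10 uM horse apoferritin following a brief 10 min room-temperature incubation; propofol titration acted as positive control.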
APE1 inh: qHTS Assay for Inhibitors of the Human Apurinic/apyrimidinic Endonuclease 1 (APE1); recombinant APE1, TAMRA/BHQ-2 abasic DNA cleavage fluorescence; 350,000 compounds, 0.35% hits; DNA repair nuclease/redox regulator APEX1 (Homo sapiens), P27695; Potency, µM (top dose mostly 65.8 µM), for the others: top-dose activity change, negative = inhibition, usual class: inhibitors;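 further: potency means the concentration at half of the fitted maximal effect; plate controls were vehicle for no effect and reference inhibitor for full effect; nearly all actives have a fitted effect of over 55% in size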
Target sequence (P27695 whole entry, looked up): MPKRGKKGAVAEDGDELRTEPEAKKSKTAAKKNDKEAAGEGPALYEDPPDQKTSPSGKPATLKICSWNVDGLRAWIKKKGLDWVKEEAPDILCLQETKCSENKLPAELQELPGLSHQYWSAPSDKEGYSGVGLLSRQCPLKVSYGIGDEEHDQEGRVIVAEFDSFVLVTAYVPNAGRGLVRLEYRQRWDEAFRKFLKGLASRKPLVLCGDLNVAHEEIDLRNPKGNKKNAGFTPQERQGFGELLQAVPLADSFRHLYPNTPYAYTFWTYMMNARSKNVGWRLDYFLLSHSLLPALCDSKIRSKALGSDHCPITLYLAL
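APE1 at 0.75 nM preincubated 15 min at room temperature with compound. Reaction then started with 50 nM double-stranded THF-abasic substrate labelled with TAMRA/BHQ-2, and 525/598 nm fluorescence read kinetically. Activity taken as third-minus-first read difference, normalized to DMSO and NSC13755 controls.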
Pol beta inh: qHTS Assay for Inhibitors of DNA Polymerase Beta. P06746. Pol beta primer extension/strand displacement, fluorescence kinetic. Potency, µM (highest dose often 114 µM), inactives show top-dose activity change, negative = inhibition, actives largely listed as inhibitors. 340,000 compounds, 1.3% hits; further: potency means the concentration at half of the fitted maximal effect; on the % scale 0 is the no-effect control and ±100 the full control effect
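Preincubation: enzyme (10 nM) with compound, 15 min, RT. Reaction: substrate added to 50 nM final. Reads: 0 and 10 min. Analysis: normalized, Hill fit.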
Pol kappa inh: qHTS for Inhibitors of Polymerase Kappa | DNA polymerase kappa (Homo sapiens), Q9UBT6 | purified Pol kappa, fluorescent DNA synthesis assay, 10 min | Potency, µM (series often up to 107 µM), for the others: at the top dose activity, negative = inhibition, most hits filed as inhibitors | 400,000 compounds, 0.53% hits; further: potency means the concentration at half of the fitted maximal effect; on the % scale 0 is the no-effect control and ±100 the full control effect
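Inhibition of 10 nM Pol kappa is measured by a fluorescent read-out at 0 and 10 min following addition of 50 nM substrate (final), with a 15-min room-temperature compound preincubation.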
Pol eta inh: qHTS for Inhibitors of Polymerase Eta; recombinant Pol eta, fluorescent DNA replication assay; AID 588591, 2011; 390,000 compounds, 1.2% hits; DNA polymerase eta (Homo sapiens), Q9Y253; Potency, µM (titrated, usually from 114 µM), for inactives: at the top dose activity change, negative = inhibition, actives largely listed as inhibitors; further: potency means the concentration at half of the fitted maximal effect; on the % scale 0 is the no-effect control and ±100 the full control effect
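Fluorescent replication assay: 50 nM final substrate added after a 15 min room-temperature compound preincubation with 10 nM enzyme. Signal taken at 0 min and again at 10 min.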
An asterisk follows results filed as active; ? = inconclusive; . = no result given; [ ] = dose if it differs, or a comment. Unless noted, the call rests on the fitted dose curve; in most records, active means well fitted curve in the direction sought with a large enough effect; inconclusive means small, poorly fitted or top-dose-only effect, or another doubt; inactive means no such curve, though single readings can be large; an effect the other way counts as inactive or inconclusive. The list is partial; rates above refer to the full screens.

Codes: A = ERG-DNA inh; B = RGS4 inhibitor; C = LDHA inh; D = Anesthetic bind; E = APE1 inh; F = Pol beta inh; G = Pol kappa inh; H = Pol eta inh
SMILES: CN(C)S(=O)(=O)c1cc(C(=O)Nc2ccn(C)n2)c(Cl)cc1Cl
  A: -0.8%; B: 26.0%; C: -3.7; D: .; E: 28.9%; F: .; G: -2.6%; H: -3.7%

SMILES: Cc1c(OCC(=O)OC(C)C)ccc2c3c(c(=O)oc12)CCC3
  A: 6.9%; B: -3.6%; C: -6.5; D: -2.4%; E: 1.6%; F: -0.1%; G: -8.0%; H: 1.1%

SMILES: N#C/C(=C/c1cccnc1)c1ccccc1
  A: 19.0%; B: -2.8%; C: -3.6; D: -9.5%; E: -10.1%; F: 2.9%; G: -6.4%; H: 1.0%

SMILES: O=C(N/C(=C\c1ccc([N+](=O)[O-])cc1)C(=O)N1CCOCC1)c1ccccc1
  A: 0.7%; B: -3.6%; C: -9.4; D: -11.0%; E: -2.1%; F: 0.8%; G: -0.9%; H: -7.0%

SMILES: Cc1cc(Cl)ccc1NC(=S)NCCC(c1ccccc1)c1ccccc1
  A: 3.5%; B: -35.5%; C: -2.1; D: 12.8%; E: -10.5%; F: -13.3%; G: -1.5%; H: -2.5%

SMILES: Brc1ccc(CSc2ccc3nnc(-c4cccnc4)n3n2)cc1
  A: -17.2%; B: 16.0%; C: -9.7; D: ?; E: -5.5%; F: 18.5%; G: -14.0%; H: 7.2%

SMILES: c1csc(-c2ccn[nH]2)c1
  A: 6.7%; B: -5.4%; C: -2.2; D: -2.8%; E: 16.5%; F: 56.0%[activator]; G: 7.2%; H: -20.4%

SMILES: COc1ccc(C2=NN(C)C(=NCc3ccccc3)SC2)cc1
  A: 0.5%; B: 5.8%; C: -11.6; D: -17.1%; E: -2.5%; F: 22.8%; G: -2.3%; H: 0.5%

SMILES: CCOc1cc(/C=N/NC(=O)c2cccc(S(=O)(=O)N3CCCC3)c2)ccc1OCC(=O)N(C)C
  A: 27.3%; B: 4.4%; C: -5.5; D: .; E: -9.1%; F: .; G: -18.9%; H: -1.5%

SMILES: COc1cccc(C(=O)NN/C(C)=C/C(=O)C(F)(F)C(F)(F)C(F)(F)F)c1
  A: -6.3%; B: ?; C: 0.6; D: -9.8%; E: 2.7%; F: 41.0%; G: -1.4%; H: -10.8%

SMILES: O=C(CNC(=O)c1cccc([N+](=O)[O-])c1)OCCCC(=O)c1ccc(F)cc1
  A: 13.3%; B: 8.6%; C: 1.7; D: .; E: 8.0%; F: .; G: 7.5%; H: 5.3%

Some of these compounds in order of formula weight, largest number first:
Codes: A = ERG-DNA inh; B = RGS4 inhibitor; C = LDHA inh; D = Anesthetic bind; E = APE1 inh; F = Pol beta inh; G = Pol kappa inh; H = Pol eta inh
SMILES: CCOc1cc(/C=N/NC(=O)c2cccc(S(=O)(=O)N3CCCC3)c2)ccc1OCC(=O)N(C)C
  A: 27.3%; B: 4.4%; C: -5.5; D: .; E: -9.1%; F: .; G: -18.9%; H: -1.5%

SMILES: COc1cccc(C(=O)NN/C(C)=C/C(=O)C(F)(F)C(F)(F)C(F)(F)F)c1
  A: -6.3%; B: ?; C: 0.6; D: -9.8%; E: 2.7%; F: 41.0%; G: -1.4%; H: -10.8%

SMILES: Brc1ccc(CSc2ccc3nnc(-c4cccnc4)n3n2)cc1
  A: -17.2%; B: 16.0%; C: -9.7; D: ?; E: -5.5%; F: 18.5%; G: -14.0%; H: 7.2%

SMILES: Cc1cc(Cl)ccc1NC(=S)NCCC(c1ccccc1)c1ccccc1
  A: 3.5%; B: -35.5%; C: -2.1; D: 12.8%; E: -10.5%; F: -13.3%; G: -1.5%; H: -2.5%

SMILES: O=C(CNC(=O)c1cccc([N+](=O)[O-])c1)OCCCC(=O)c1ccc(F)cc1
  A: 13.3%; B: 8.6%; C: 1.7; D: .; E: 8.0%; F: .; G: 7.5%; H: 5.3%

SMILES: O=C(N/C(=C\c1ccc([N+](=O)[O-])cc1)C(=O)N1CCOCC1)c1ccccc1
  A: 0.7%; B: -3.6%; C: -9.4; D: -11.0%; E: -2.1%; F: 0.8%; G: -0.9%; H: -7.0%

SMILES: CN(C)S(=O)(=O)c1cc(C(=O)Nc2ccn(C)n2)c(Cl)cc1Cl
  A: -0.8%; B: 26.0%; C: -3.7; D: .; E: 28.9%; F: .; G: -2.6%; H: -3.7%

SMILES: COc1ccc(C2=NN(C)C(=NCc3ccccc3)SC2)cc1
  A: 0.5%; B: 5.8%; C: -11.6; D: -17.1%; E: -2.5%; F: 22.8%; G: -2.3%; H: 0.5%

SMILES: Cc1c(OCC(=O)OC(C)C)ccc2c3c(c(=O)oc12)CCC3
  A: 6.9%; B: -3.6%; C: -6.5; D: -2.4%; E: 1.6%; F: -0.1%; G: -8.0%; H: 1.1%

SMILES: N#C/C(=C/c1cccnc1)c1ccccc1
  A: 19.0%; B: -2.8%; C: -3.6; D: -9.5%; E: -10.1%; F: 2.9%; G: -6.4%; H: 1.0%

SMILES: c1csc(-c2ccn[nH]2)c1
  A: 6.7%; B: -5.4%; C: -2.2; D: -2.8%; E: 16.5%; F: 56.0%[activator]; G: 7.2%; H: -20.4%
